HCMV UL50-53 inh: inhibitors of HCMV UL50-UL53 nuclear egress complex interaction. actives 0.15% (n = 190,000). inhibition, % (no concentration beside the values). HTRF UL50-UL53 interaction, normalized percent inhibition;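 active = both replicates at 50% or more, plus weaker picks with an unusually low signal ratio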;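 note: stock transfer was 100 nL into about 20 µL; 0% = negative control wells and 100% = wells with untagged competitor protein; inactives centre near -12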
GIV Gai3 FP: inhibitors of GIV GBA-motif binding to rat Galpha-i3; P08753; Galpha-i3/FITC-GIV peptide fluorescence polarization, 90 min; hits give low values; scaled: aluminum fluoride 0%, vehicle 100%; percent of control (FP), % (concentration not given with the values); actives 0.42% (n = 210,000); AID 1224905;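 active = replicate mean at 85% of control or lower, very high polarization wells dropped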;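 note: wells of about 15 µL received 100 nL stock; the first replicate is given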
Target sequence (P08753 whole entry, looked up): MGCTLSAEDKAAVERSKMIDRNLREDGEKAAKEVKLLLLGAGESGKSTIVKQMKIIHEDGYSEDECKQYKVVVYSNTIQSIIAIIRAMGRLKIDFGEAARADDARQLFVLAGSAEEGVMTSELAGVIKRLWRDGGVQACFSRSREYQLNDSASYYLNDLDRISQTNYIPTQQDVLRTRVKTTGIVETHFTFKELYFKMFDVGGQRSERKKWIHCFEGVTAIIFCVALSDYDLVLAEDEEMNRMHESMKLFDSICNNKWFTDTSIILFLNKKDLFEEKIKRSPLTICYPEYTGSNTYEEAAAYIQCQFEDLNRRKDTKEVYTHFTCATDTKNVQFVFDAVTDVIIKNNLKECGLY
Sa growth inh: inhibitors of Staphylococcus aureus growth at 42 °C; S. aureus RN4220 growth, OD600, 20 h; hits give low values; relative growth, % (no concentration beside the values); actives 0.53% (n = 170,000); AID 720641;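 active = growth at 42 °C up to 50% and 20 or more points under that at 30 °C, or under 10% at both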;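 note: 300 nL library stock went into each well; scaled to the means of positive and negative controls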
Sa growth inh second temp: recorded beside Sa growth inh, whose call it bears; relative growth, %; measured here: growth at 30 °C;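 optical density after 20 h as mean of two plates; 100% = untreated growth and lower means inhibition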
An asterisk follows results filed as active; . = no result given; & = joins results of further samples.

SMILES	HCMV UL50-53 inh	GIV Gai3 FP	Sa growth inh	Sa growth inh second temp
CCC(CC)C(=O)Nc1ccc(OCc2cc(=O)n3ccc(C)cc3n2)cc1	.	106	100	99
CCCCc1nn2c(=O)cc(COC(=O)c3cccc(NC(=O)c4cccs4)c3)nc2s1	.	98	89	87
COc1ccc(OCC(=O)Nc2ccc(CN3CCOCC3)cc2)cc1	16	104	99	103
O=C(COC(=O)C1CC2CCCC(C1)C2=O)c1ccccc1 (stereo not drawn)	-8	.	100	88
Cc1ccccc1Nc1nc(N)nc(CSc2nncn2-c2ccccc2)n1	-8	.	93	95
O=C(Nc1ccc(OC(F)(F)F)cc1)c1cc2ccccn2n1	.	104	86	96
O=C(OCc1ccc(Cl)cc1)c1cnc(N2CCCCC2)nc1C(F)(F)F	-14	100	102	94
Cc1ccc(C)c(CN2C(=O)c3ccccc3S(=O)(=O)c3ccc(C(=O)NCCc4ccc(Cl)cc4)cc32)c1	-8	111	108	103
COc1cccc(NC(=S)C(C#N)=C2N(C)c3ccccc3N2C)c1	4	.	107	96
COC(=O)c1cn(CC(=O)Nc2ccc(F)cc2)c2nc(C)ccc2c1=O	-10	120	.	.
CCSC1=C(C#N)C(C)C(C#N)C(=O)N1 (stereo not drawn)	4	.	114	93
COc1ccc(CCNC(=O)CSc2nc(C)c(C)c(=O)[nH]2)cc1OC	-26	103	89	84
Cc1ccc(O)c(C2=Nc3ccccc3N=C(c3ccc(Cl)cc3)C2)c1	-9	106&95	.	.
Cc1nn2c(=O)cc(CSCc3ccco3)nc2s1	-4	98	100	88
O=C(c1cc(-c2cccc(Cl)c2)on1)N1CCCCC1	3	94	98	95
CCOc1cccc(C(=O)NN2CCOCC2)c1	-1	100	109	106
COc1cccc(C(=O)N2CCC(N3CCN(Cc4cccc(F)c4)C(=O)C3=O)CC2)c1	-26	99	.	.
CNC(=O)C1CCC(Cn2c(=O)c3sccc3n(CC(=O)Nc3ccc(C)c(F)c3)c2=O)CC1 (stereo not drawn)	.	97	72	81
Cc1ccc(CNC(=O)C2CCN(S(=O)(=O)Cc3ccccc3)CC2)cc1	-17	104	102	87
O=C(NCc1n[nH]c(=O)c2ccccc12)C1CC(=O)N(c2ccccc2)C1 (stereo not drawn)	-23	102	95	84
Cc1csc(C(C#N)C(=O)CSc2nnc(NCc3ccccc3)s2)n1 (stereo not drawn)	-35	.	88	73
Cc1ccc(NC(=O)CNS(=O)(=O)c2ccccc2)c(C(=O)c2ccccc2)c1	.	99	124	83
C=C1C(C(=O)N2c3ccccc3CC2C)C1C(=O)N1c2ccccc2CC1C (stereo not drawn)	-13	.	84	92
CCc1ccc(NC(=O)Cn2c(=O)n(CCC(=O)N3CCc4ccccc4C3)c(=O)c3ccccc32)cc1	7	108	86	94
O=C(CSc1nnc(CNC(=O)c2ccccc2)n1-c1cccc(Cl)c1)Nc1ccccc1F	13	100	102	86
Cc1ccc(/C=C/C(=O)NCc2ccncc2)cc1	-47	102	119	94
Cn1c(SCC(=O)c2ccc3c(c2)OCCO3)nnc1-c1ccc2ccccc2c1	-19	101	103	88
Cc1ccc(S(=O)(=O)c2nc(-c3ccco3)oc2SCC(=O)c2ccc(Cl)cc2)cc1	0	96	104	91
CCn1cc2nc(SCc3cc(C)ccc3C)n(Cc3ccc(OC)cc3)c(=O)c2n1	.	106	90	91
CC(C)(C#CC(O)(c1ccccc1)c1ccccc1)N1CCCCC1	.	98	104	80
Cc1ccc(-n2ncc3c(NCCO)ncnc32)cc1Cl	.	103	121	74
NC(=O)C1CCN(Cc2c(O)ccc3cc(Br)ccc23)CC1	-13	.	91	100
CCOc1cc2[nH]c(=S)n(CCCC(=O)N3CCCCCC3)c(=O)c2cc1OCC	10	108	97	101
Fc1ccc(N2CCN(CCCNc3nc(-c4ccccc4F)no3)CC2)cc1	5	107	102	96
CN1CCN(CCCNC(=O)c2cnn(-c3ccc(F)cc3)c2-n2cccc2)CC1	.	100	124	86
COc1ccc(Cl)cc1NC(=O)CSc1nc2nccnc2c(=O)n1Cc1ccc(C)cc1	.	100	115	78
OCCN=c1cc(-c2ccccc2)oc2ccc(Cl)cc12	.	98	97	66
COc1cc(C(=O)NCc2nnc(SCC(=O)Nc3cc(C(F)(F)F)ccc3Cl)o2)cc(OC)c1OC	-19	98	81	91
O=S(=O)(Cc1nc(-c2ccccc2Cl)cs1)c1cccs1	-3	102	99	78
Cc1ccc(NC(=O)C2CCCN(c3ncnc4onc(C)c34)C2)c(Cl)c1 (stereo not drawn)	.	100	90	92
CCOc1cc2c(cc1OCC)C1C(C(=O)NCCC(C)C)c3ccccc3C(=O)N1CC2 (stereo not drawn)	.	102	104	88
CC1=CN2C(=N)/C(=C/c3cc(C)n(Cc4ccccc4)c3C)C(=O)N=C2S1	.	111	102	76
Cc1cc(C)n2nc(CNC(=O)Nc3ccccc3Cl)nc2n1	.	106	109	94
O=C(NCCC(=O)N1CCCc2ccccc21)c1ccco1	-3	.	113	99
CCOc1ccccc1NC(=O)COc1cccc2c(=O)n(CCOC)ccc12	.	101	105	89
O=C(NCc1ccc(F)cc1)c1nn2c(c1Br)NC(c1cccs1)CC2C(F)(F)F (stereo not drawn)	-21	91	.	.
CCCCOc1ccccc1C1NC(=O)NC(C)=C1C(=O)OCCc1ccccc1 (stereo not drawn)	-9	103	.	.
N#Cc1cccc(N2C(=O)C=CC2=O)c1	-1	102	61	39
COc1cc(OC)c(NC(=O)NCc2ccc3c(c2)CCN3C(C)=O)cc1Cl	.	100	103	100
O=C(O)/C=C/C(=O)Nc1ccc(-c2csnn2)cc1	-3	99	81	105
COc1ccccc1NC(=O)n1ncc2ccccc21	-15	100	.	.
O=C(CN1C(=O)C2C3C=CC(C3)C2C1=O)NCCN1CCCc2ccccc21 (stereo not drawn)	.	104	105	92
CCCCCC1C/C(=N\O)C=C(C)C1C(=O)OC (stereo not drawn)	-36	.	117	98
Cc1nc2c(c(C)nn2-c2ccccc2)c(C)c1CCC(=O)NCc1ccccc1	-17	99	99	84
CCn1c(=O)c2c(c3ccccc31)Oc1ccc(C)cc1N=C2C	0	.	83	84
CCNC(=S)N1CCN(CCN=CC2=C(O)CC(c3ccccc3)CC2=O)CC1 (stereo not drawn)	.	103	69	96
O=C(/C=C/c1cccs1)NCCc1ccccc1	-40	98	95	83
CC1(C)CN(c2cc(C(F)(F)F)cc(C(F)(F)F)c2)C1=O	-21	100	.	.
COc1cccc2cc(C(=O)C3=C(O)C(=O)N(CCCn4ccnc4)C3c3ccc(F)cc3)oc12 (stereo not drawn)	-61	105	98	98
CCNc1nc(OC)nc(Oc2ccc(OCC(=O)OC)nn2)n1	-8	106	108	93
Next compounds
SMILES	HCMV UL50-53 inh	GIV Gai3 FP	Sa growth inh	Sa growth inh second temp
COc1ccc(N2C(=O)CC(Sc3nc(N)c(C#N)c(-c4ccc(C)cc4)c3C#N)C2=O)cc1 (stereo not drawn)	-12	109	.	.
O=C(CCC1CCCCC1)Nc1ccc(S(=O)(=O)Nc2ncccn2)cc1	.	99	95	90
Cc1cc(C)cc(OCC(=O)NCCc2nc3ccccc3[nH]2)c1	0	116	103	99
Cc1ccsc1CNC(C)c1ccccc1 (stereo not drawn)	-14	.	108	92
Cc1nnc2sc(-c3cccc(NC(=O)c4ccco4)c3)nn12	1	103	64	46
O=C(NC1CCCC1)c1ccc(NC(=O)C2CCCO2)cc1 (stereo not drawn)	-1	101	118	88
CN1CCCc2cc(/C=C3\Cc4ccccc4C3=O)ccc21	.	-75*	115	82
CCOC(=O)c1c(NC(=O)c2ccc(OC)c(S(=O)(=O)N3CCOCC3)c2)sc2c1CCCC2	8	109	.	.
CCN(Cc1ccccc1)C(=O)CN(c1ccc(OC)cc1)S(=O)(=O)c1c(C)nn(C)c1C	-31	107	93	90
O=C(CN1CCN(Cc2ccccc2Cl)S1(=O)=O)Nc1ccc(Br)cc1	-5	98	.	.
CCN(CC)C/C=C/c1c(F)c(F)c(NCCOC)c(F)c1F	-51	102	80	95
Cc1c2cnn(-c3ccccc3)c(=O)c2c(C)n1CC(=O)N1CCN(c2ccc(F)cc2)CC1	-14	103	125	80
CC(C)Cn1c(=O)c2ccccc2n2c(-c3cccc(Cl)c3)nnc12	7	97	108	96
Cc1cc(OC(CN(C)C)CN(C)C)nc2ccccc12	-4	97	95	96
CCCC(=O)N1CCN(c2nc(Cc3ccccc3)c3c(c2C#N)CC(C)(C)OC3)CC1	.	104	97	92
Cc1cc(C(=O)CN2CC(=O)Nc3ccccc32)c(C)n1-c1c(C)n(C)n(-c2ccccc2)c1=O	-17	.	73	86
Cc1cc(-c2csc(N)n2)c(C)n1C(C)C	5	98	94	65
O=C(O)CCc1nnc2ccc(N3CCCC3)nn12	.	103	96	86
CC(C(=O)OCC(=O)c1ccccc1)N1C(=O)c2ccccc2C1=O (stereo not drawn)	-15	101	102	92
Cc1ccc(-c2c(C(=O)Nc3ccc(F)c(F)c3)oc(=O)c3ccccc23)cc1	-18	101	102	91
CCCNC(=O)Cn1nc(-c2ccc(OC)cc2)c2cnc3ccc(F)cc3c21	.	96	97	94
O=C(CSc1nc2ccc(Br)cc2c(=O)n1-c1ccccc1)NCc1ccco1	1	99	97	94
Cc1ccccc1NC(=O)CSC1=NC(=O)CC(=O)N1Cc1ccccc1	-6	.	93	88
CC1CCN(S(=O)(=O)c2ccc3nc(Nc4cccc(C(F)(F)F)c4)ccc3c2)CC1	.	107	74	89
O=S(=O)(Nc1nc2ccccc2nc1NCCN1CCOCC1)c1ccc2c(c1)OCCO2	-10	.	103	89
CC(C)Oc1ccccc1/C=N/O	1	.	83	98
COc1ccc(-c2nn3c(Nc4cccc(C)c4)cc(C)nc3c2C)cc1OC	-7	109	.	.
CC1CCC(NS(=O)(=O)c2ccc3c(c2)CCN3C(=O)CCCC(=O)O)CC1 (stereo not drawn)	2	97	107	92
COCCn1c(SCC(=O)c2ccc(C)cc2C)nc2cc(C(=O)NC3CCCC3)ccc2c1=O	.	107	107	94
O=c1cc(-c2ccccc2)n2c(SCc3ccccc3Cl)nnc2[nH]1	.	103	118	90
CCC(C)NC(=O)CCNC(=O)N1CCSc2nc(C)cc(C)c21 (stereo not drawn)	-1	114	.	.
COc1ccc(-n2c(CCC(=O)O)ccc2-c2ccccc2)cc1	.	104	114	92
Cc1cc(NC(=O)/C(C#N)=C/c2sc(N3CCOCC3)nc2-c2ccccc2)n(-c2ccccc2)n1	-1	.	82	94
O=C(Cn1c2c(c(-c3ccccc3Cl)cc1=O)CCC2)NCC1CCCO1 (stereo not drawn)	-10	99	92	93
N#CC1=C(N)SC(N)=C(C#N)C1	-35	226	123	60
COc1cn(CC(=O)Nc2cc(C)cc(C)c2)c(CN2CCCCC2)cc1=O	.	103	120	87
CN(Cc1ccccc1)C(=O)c1cc(-c2ccco2)nc2ccccc12	-22	.	98	88
O=C1c2ccccc2-c2onc3c(NCCO)cc(NC4CCCCC4)c1c23	-96	45*	129	79
C#C[C@]1(OC(C)=O)CCC2C3CCC4=CC(=O)CC[C@@H]4C3CC[C@@]21C (stereo partly drawn)	-14	.	80	86
COc1ccc(OCCSc2nc(C)cc(=O)[nH]2)cc1	-19	98	111	106
CCCc1nnc(NC(=O)Nc2[nH]c(C)c(C(=O)OCC)c2C)s1	-16	98	.	.
O=C(CN1C(=O)C2(OCCO2)c2ccccc21)c1ccccc1	-10	105	.	.
CC(=O)Nc1ccc(S(=O)(=O)Nn2cnnc2)cc1	-26	106	115	95
COc1cc(C(=O)N(C)c2ccccc2)cc(OC)c1OC	2	.	99	97
CCCC(C(=O)c1ccccc1)n1cncn1 (stereo not drawn)	0	99	87	86
CNC(=O)Nc1ccc(Oc2cncc(Cl)c2)nc1	-20	103	89	90

Entries listed so far that have an aryl thioether with sulfur outside any ring:
SMILES	HCMV UL50-53 inh	GIV Gai3 FP	Sa growth inh	Sa growth inh second temp
Cc1ccccc1Nc1nc(N)nc(CSc2nncn2-c2ccccc2)n1	-8	.	93	95
COc1ccc(CCNC(=O)CSc2nc(C)c(C)c(=O)[nH]2)cc1OC	-26	103	89	84
Cc1csc(C(C#N)C(=O)CSc2nnc(NCc3ccccc3)s2)n1 (stereo not drawn)	-35	.	88	73
O=C(CSc1nnc(CNC(=O)c2ccccc2)n1-c1cccc(Cl)c1)Nc1ccccc1F	13	100	102	86
Cn1c(SCC(=O)c2ccc3c(c2)OCCO3)nnc1-c1ccc2ccccc2c1	-19	101	103	88
Cc1ccc(S(=O)(=O)c2nc(-c3ccco3)oc2SCC(=O)c2ccc(Cl)cc2)cc1	0	96	104	91
CCn1cc2nc(SCc3cc(C)ccc3C)n(Cc3ccc(OC)cc3)c(=O)c2n1	.	106	90	91
COc1ccc(Cl)cc1NC(=O)CSc1nc2nccnc2c(=O)n1Cc1ccc(C)cc1	.	100	115	78
COc1cc(C(=O)NCc2nnc(SCC(=O)Nc3cc(C(F)(F)F)ccc3Cl)o2)cc(OC)c1OC	-19	98	81	91
COc1ccc(N2C(=O)CC(Sc3nc(N)c(C#N)c(-c4ccc(C)cc4)c3C#N)C2=O)cc1 (stereo not drawn)	-12	109	.	.
O=C(CSc1nc2ccc(Br)cc2c(=O)n1-c1ccccc1)NCc1ccco1	1	99	97	94
COCCn1c(SCC(=O)c2ccc(C)cc2C)nc2cc(C(=O)NC3CCCC3)ccc2c1=O	.	107	107	94
O=c1cc(-c2ccccc2)n2c(SCc3ccccc3Cl)nnc2[nH]1	.	103	118	90
COc1ccc(OCCSc2nc(C)cc(=O)[nH]2)cc1	-19	98	111	106

Assay outcomes from PubChem.
